Source: PubChem (National Center for Advancing Translational Sciences (NCATS))
gsp ag = gsp mutant agonism | Potency, µM (highest dose often 76.9 µM), inactives show at the top dose activation (cAMP increase), actives largely listed as activators | hit rate 0.13% among 340,000 | gsp mutant cells, cAMP HTRF, 30 min; control for the full effect not named in the record; active = well fitted activation curve with a large enough effect; inconclusive = small, poorly fitted or top-dose-only effect, or another doubt; inactive = no such curve, though single readings can be large or run the other way; cell line not stated here;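 note: phosphodiesterase inhibitor Ro 20-1724 added with compounds to block cAMP breakdown; potency is the fitted concentration of half-maximal effect; nearly all actives have a fitted effect of over 60% in size; about a fifth of the inactives were tested at one dose only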
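Cells in DMEM/10% FBS with G418 were pretreated with compounds in DMSO plus […] (300 uM stock) for 30 min at 37C. cAMP was measured by HTRF (cAMP-d2 plus anti-cAMP antibody-K) after 30 min at room temperature.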
CtBP-E1A inh = blocks the CtBP interaction with E1A; AlphaScreen GST-E1A/His-CtBP binding, 1536-well; hits give low values; control for the full effect not named in the record; activity change, % (test concentration not listed); hit rate 0.49% among 340,000; AID 651724; in the data active means activity change below about -65%; inconclusive means about -30% to -65%; inactive means above about -30%; note: % is set by controls: 0 for no effect and ±100 for the full control effect; compound concentration not given in the record
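AlphaScreen with 125 nM GST-E1A and 125 nM His-CtBP (5X stocks) in Tris pH 8.0, 300 mM NaCl, BSA, Tween 20, TCEP. Compounds preincubated 2 h at 37 deg C, then glutathione donor/nickel acceptor beads added for 1 h at 37 deg C in dark.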
Six1-Eya2 inh = Six1/Eya2 interaction inhibition; hit rate 0.56% among 360,000; Q15475+O00167; activity change, % (no concentration beside the values); AlphaScreen GST-Six1/His-Eya2 binding, biochemical; hits give low values; control for the full effect not named in the record; in the data active = activity change below about -65%; inconclusive = about -30% to -65%; inactive = above about -30%; note: % is set by controls: 0 for no effect and ±100 for the full control effect; compound concentration not given in the record
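AlphaScreen with GST-Six1 and His-Eya2 (5X mix: 250 nM and 500 nM), glutathione donor and nickel acceptor beads; buffer 50 mM Tris pH 8.0, 300 mM NaCl, 1 mM TCEP; 1 h at 37 C in the dark.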
D2 potentiator = human D2 receptor positive allosteric modulation; P14416; DiscoveRx D2 beta-arrestin cells, luminescence, 90 min; 100% = 57 uM dopamine signal; potentiation, % (concentration not given with the values); hit rate 0.23% among 360,000; AID 624464; active = potentiation of 50% or more; inconclusive = 30% to 50%; inactive = 30% or less;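 note: compound concentration not given in the record; tested on top of an EC20 dose of dopamine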
Target sequence (P14416 whole entry, looked up): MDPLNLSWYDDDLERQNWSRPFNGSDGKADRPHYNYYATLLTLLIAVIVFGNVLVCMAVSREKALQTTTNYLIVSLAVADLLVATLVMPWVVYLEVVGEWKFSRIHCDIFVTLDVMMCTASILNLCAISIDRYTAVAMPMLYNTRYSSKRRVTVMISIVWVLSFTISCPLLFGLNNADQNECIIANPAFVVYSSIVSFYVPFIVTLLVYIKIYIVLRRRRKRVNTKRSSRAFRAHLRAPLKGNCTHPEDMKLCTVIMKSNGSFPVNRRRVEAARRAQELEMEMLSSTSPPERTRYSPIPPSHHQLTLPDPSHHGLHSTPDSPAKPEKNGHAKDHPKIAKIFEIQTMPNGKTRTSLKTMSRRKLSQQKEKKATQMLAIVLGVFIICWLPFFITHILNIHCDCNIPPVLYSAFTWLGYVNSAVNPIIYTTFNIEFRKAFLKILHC
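PathHunter D2 cells, attached overnight at 37 deg C, received compound in DMSO plus dopamine at EC20 (50 nM final) for 90 min at 37 deg C. Beta-arrestin recruitment was read as luminescence after 1 h with detection reagent at ambient temperature.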
D2 agonist = activates the human D2 dopamine receptor | P14416 | DiscoveRx PathHunter D2 beta-arrestin, luminescence, 90 min; 100% = 57 uM dopamine signal | activation, % (test concentration not listed) | hit rate 0.084% among 360,000 | AID 624465; in the data active = activation above about 40%; inconclusive = about 15% to 40%; inactive = below about 15%; note: compound concentration not given in the record; the text of the record calls up to 30% inactive
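Agonist mode: compounds alone added to overnight-plated D2 PathHunter cells for 90 min at 37 C, with 57 uM final dopamine (EC100) defining full response. Beta-arrestin recruitment detected by chemiluminescent reagent, read after 1 h at ambient temperature.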
gsp antag = antagonists of gsp mutant (McCune-Albright syndrome); hit rate 0.4% among 340,000; gsp-mutant cells, cAMP HTRF, 30 min; control for the full effect not named in the record; Potency, µM (titrated, usually from 76.9 µM), for inactives: at the top dose activity change, negative = inhibition, usual class: inhibitors; AID 624288; active = falling curve of any shape with a large fitted effect; inconclusive = falling curve, mostly with a smaller effect; inactive = flat or rising curve; cell line not stated here;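 note: intracellular cAMP measured with PDE inhibitor Ro 20-1724 present during compound exposure; potency is the fitted concentration of half-maximal effect; % is set by controls: 0 for no effect and ±100 for the full control effect; nearly all actives have a fitted effect of over 65% in size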
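Cells in G418 medium, seeded 16-24 h, 37C; buffer exchange to DPBS + 1 mM CaCl2, 0.5 mM MgCl2, 0.05% BSA; cpds in DMSO + […] (300 uM stock), 30 min 37C; HTRF cAMP detection.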
* = called active by the depositor; ? = inconclusive; · = no result given; [ ] = dose if it differs, or a comment.

SMILES	gsp ag	CtBP-E1A inh	Six1-Eya2 inh	D2 potentiator	D2 agonist	gsp antag
O=C(COc1ccc(Cl)cc1)NCCc1ccccn1	-13%[15.4 µM]	8	4	-24	-4.4	4%
CCOC(=O)c1ccc(S(=O)(=O)NCC(C)(C)N2CCOCC2)cc1	-7%	·	3	-25	-1.2	5%
O=C(OCc1ccc([N+](=O)[O-])cc1)c1cc(S(=O)(=O)N2CCCCC2)ccc1N1CCOCC1	?	-2	-7	3	-0.9	-2%
O=c1[nH]c(Cc2cccs2)nc2scc(-c3ccc(Cl)cc3)c12	18%[15.4 µM]	1	1	2	0.0	-3%
Cc1ccc(NC(=O)c2cc3cc(OC(F)(F)F)ccc3[nH]2)cc1	0%	·	-5	-23	-4.6	7%
COc1ccccc1CNC(=O)COC(=O)c1cccnc1SCC(=O)NCc1ccccc1OC	13%[15.4 µM]	1	2	-9	0.5	-25%
Nc1nnc(-c2ccc(Cl)cc2Cl)s1	6%[15.4 µM]	-17	5	-11	-1.3	·
CC(NC(=O)CCOc1ccccc1)c1ccccc1 (centres undefined)	4%	3	6	-14	-2.6	7%
CC(C)CC1NC(=O)N(CC(=O)N(C)C2CCCCC2)C1=O (centres undefined)	-31%[inhibitor]	1	-1	-4	-0.1	2%
COc1ccc([N+](=O)[O-])cc1NC(=O)CCNC(=O)Cn1ccc2ccccc2c1=O	-47%[inhibitor]	·	-2	-10	-1.9	7%
O=C(CCn1nc(-c2ccc(Cl)cc2)ccc1=O)NCc1ccccn1	-7%	-18	-18	12	0.5	-5%
CC(C)c1cc(=O)n2c(nc3ccccc32)[nH]1	?	·	1	-14	-0.3	1%
CNC[C@@H]1Oc2cc(Br)ccc2S(=O)(=O)N([C@H](C)CO)C[C@@H]1C	·	-15	6	-9	-4.5	·
O=C(CN1c2cccc3cccc(c23)S1(=O)=O)N1CCCCC1	26%	10	-1	1	3.4	2%
COc1ccc2cc(-c3cc(C(=O)O)c4ccccc4n3)ccc2c1	?	-1	-1	-9	-1.0	-10%
CCOC(=O)c1ccc(NC(=O)N2CCN(C3CCCCC3)CC2)cc1	-39%[inhibitor]	-2	1	-15	-0.7	-3%
CCN1C(=O)C(=O)N(Cc2ccc(OC)c(F)c2)C1=O	6%	-2	9	-5	-6.2	4%
COCC(=O)N(Cc1ccco1)c1nnc(C2CCOC2)s1 (centres undefined)	12%	3	2	-4	-1.4	8%
COc1ccc(N2CCN(C(=S)NCc3ccccc3)CC2)cc1	-7%[15.4 µM]	8	-29	-8	-1.3	7%
COc1ccc2[nH]c3c(c2c1)CCN1C(=O)C(CC(=O)NCCCn2ccnc2)C[C@H](C(=O)N(C(C)C)C(C)C)[C@@]31C (some centres undefined)	·	3	0	-1	-0.4	2%
CCOC(=O)C1c2cccc(O)c2CCN1C(C)=O (centres undefined)	2%	-1	-3	0	-7.5	·
Cc1ccc(-c2cc(C(F)F)n3ncc(C(=O)Nc4ccc(S(=O)(=O)Nc5ccccc5C)cc4)c3n2)cc1	1%	1	11	2	-3.9	-11%
Cc1ccccc1COC(=O)CNC(=O)c1sc2ccccc2c1Cl	-35%[inhibitor]	17	19	-3	-5.0	-21%
Cc1nnc(NC(=O)CC23CC4CC(CC(C4)C2)C3)s1	-17%	-1	-2	-1	1.2	11%
O=C(Cn1nc(C(=O)O)c2ccccc2c1=O)Nc1cc(C(F)(F)F)ccc1-n1cncn1	0%	1	3	0	0.7	12%
O=C(CCNC(=O)c1ccc([N+](=O)[O-])cc1)Nc1ccc(F)c(F)c1F	-5%[15.4 µM]	3	-7	5	-1.3	1%
CN1C[C@@H]2C(c3ccc(C(F)(F)F)cc3)C3(c4ccc(C#N)cc4)CC2(C3)[C@H]1c1ccccc1 (some centres undefined)	·	?	-13	1	-0.4	-6%
Cc1ccc(CN2CC(N3CCCC3)CS2(=O)=O)cc1 (centres undefined)	·	-3	9	-13	-5.3	·
COc1cccc(-c2cccc(NC(=O)C3CCN(Cc4ccc(CO)o4)CC3)c2)c1	?	1	6	-19	-4.0	6%
COc1cccc(NC(=S)NC(=O)/C=C/c2ccc(F)cc2)c1	-45%[inhibitor]	-5	2	-2	2.6	0%
COc1ccc(NC(=O)CN(C)S(=O)(=O)c2ccc(Cl)cc2)cn1	-27%	·	2	-22	-0.5	-1%
CCC(Oc1ccc2ccccc2c1)C(=O)O (centres undefined)	?	8	4	17	-0.8	6%
O=S(=O)(c1cnc[nH]1)N1CCc2ccccc21	0%	-1	-1	9	-1.9	6%
Cc1nn(-c2ccccc2)c2nc(-c3ccco3)cc(C(=O)O)c12	0%	-4	-19	-16	-3.8	-13%
CCNS(=O)(=O)c1ccc(NC(=O)Cc2ccc(F)cc2)cc1	2%	15	5	-4	-0.1	19%
NS(=O)(=O)c1ccc(CNC(=O)c2cccc(Oc3ccccc3)c2)cc1	-39%[inhibitor]	16	5	-6	-1.3	-6%
CCOC(=O)N1CCN(c2c(N3CCN(c4ccc(OC)cc4)CC3)c(=O)c2=O)CC1	?	6	-6	0	-3.4	-7%
CCOc1ccc(NC(=O)CCC(=O)Oc2ccc(C)cc2)cc1	22%	6	7	-4	-0.5	14%
COc1ccc(Cn2c(O)c(C=Nc3ccccc3C(=O)O)c3ccccc3c2=O)cc1	-10%[15.4 µM]	9	-15	5	5.0	?
COc1cc2c(cc1OC)C(C)N(S(=O)(=O)c1ccc(C)cc1)CC2 (centres undefined)	11%	·	-2	-16	-2.9	-17%

Taken from above:
For Six1-Eya2 inh, CCOc1ccc(NC(=O)CCC(=O)Oc2ccc(C)cc2)cc1 has the entry 7
For gsp ag, COc1ccc(Cn2c(O)c(C=Nc3ccccc3C(=O)O)c3ccccc3c2=O)cc1 has the entry -10%[15.4 µM]
For gsp antag, NS(=O)(=O)c1ccc(CNC(=O)c2cccc(Oc3ccccc3)c2)cc1 has the entry -6%
For Six1-Eya2 inh, Cc1nn(-c2ccccc2)c2nc(-c3ccco3)cc(C(=O)O)c12 has the entry -19
For Six1-Eya2 inh, CCNS(=O)(=O)c1ccc(NC(=O)Cc2ccc(F)cc2)cc1 has the entry 5
For D2 agonist, CCOC(=O)N1CCN(c2c(N3CCN(c4ccc(OC)cc4)CC3)c(=O)c2=O)CC1 has the entry -3.4
For gsp antag, COc1ccc(NC(=O)CN(C)S(=O)(=O)c2ccc(Cl)cc2)cn1 has the entry -1%

(more compounds)
SMILES	gsp ag	CtBP-E1A inh	Six1-Eya2 inh	D2 potentiator	D2 agonist	gsp antag
CC(C)Oc1ccccc1/C=N/NC(=O)c1ccccc1Cl	?	-18	-11	-21	-1.2	?
Cc1ccc2nsnc2c1NC(=O)c1sc2ccccc2c1Cl	?	-1	-2	-1	-3.9	9%
CCc1ccc(C(=O)COC(=O)c2cccs2)cc1	?	·	42	-15	-2.3	-6%
O=C(O)/C=C/c1ccc2c(c1)OCCO2	-32%[inhibitor]	·	2	-8	-3.5	2%
CCOC(=O)C1(CCc2ccccc2)CCN(C(=O)C2CCOCC2)CC1	-7%[15.4 µM]	1	4	-3	-5.4	-1%
CC(=O)NC(CC(=O)O)c1ccc([N+](=O)[O-])cc1 (centres undefined)	7%[15.4 µM]	-9	13	0	-1.0	5%
CCOc1ccc(/C=N/NC(=O)c2ccc(F)cc2)cc1CN1CC2CC(C1)c1cccc(=O)n1C2 (centres undefined)	·	-11	-2	3	0.4	?
Cc1nn(-c2ccccc2)nc1CNC(=O)c1ncoc1-c1ccccc1	0%	·	6	-17	-2.9	-7%
CC[C@@]12C(=O)N(c3cccc(Cl)c3)C(=O)N1[C@H](c1cccc(C)c1)[C@@H]1C(=O)N(Cc3ccccc3)C(=O)[C@@H]12	·	-4	-3	-42	-1.9	-4%
O=C(/C=C/Nc1ccc(F)c(F)c1)c1ccc(Br)cc1	?	4	5	-27	-0.4	11%
CC1(NC(=O)CCc2ccccc2)CCN(CCCc2ccccc2)C1=O (centres undefined)	-12%	4	-11	-4	-2.8	3%
Fc1cccc(Cl)c1CSc1ccc(-c2cccnc2)nn1	-14%	-13	-7	-8	-2.3	-5%
O=C(Nc1nnc(S(=O)(=O)N2CCCC2)s1)c1ccccc1Cl	?	6	-4	-2	-5.4	-10%
COc1ccc(Cl)cc1NC(=S)N1CCCCCC1	-29%	6	10	-7	-3.3	9%
OC(CN1CCCCC1)Cn1c2ccccc2c2cc(Br)ccc21 (centres undefined)	-54%[inhibitor][15.4 µM]	1	5	-10	6.9	5%
COc1cc2c(cc1OC)CN(C(=O)c1ccc(S(=O)(=O)N3CCCCCC3)cc1)CC2	14%	-16	-17	-12	-0.4	-16%
Oc1ccccc1C(=S)N1CCN(C(=S)c2ccccc2O)CC1	-1%	·	0	-13	-10	-1%
COc1cc2c(cc1OC)C1(CCCC1)CNC2C (centres undefined)	-2%	6	0	-7	-6.1	-6%
COc1ccc(Cl)cc1NC(=S)NC(=O)c1ccco1	-3%	8	-3	-12	-6.7	-6%
CSc1ccccc1C(=O)Nc1ccc2c(c1)OCCO2	25%	6	-3	-18	-3.6	-1%[15.4 µM]

3 compounds out of the list, arranged by count of non-hydrogen atoms, high to low.
SMILES	gsp ag	CtBP-E1A inh	Six1-Eya2 inh	D2 potentiator	D2 agonist	gsp antag
O=C(Nc1nnc(S(=O)(=O)N2CCCC2)s1)c1ccccc1Cl	?	6	-4	-2	-5.4	-10%
CSc1ccccc1C(=O)Nc1ccc2c(c1)OCCO2	25%	6	-3	-18	-3.6	-1%[15.4 µM]
COc1ccc(Cl)cc1NC(=S)NC(=O)c1ccco1	-3%	8	-3	-12	-6.7	-6%

The list goes on:
SMILES	gsp ag	CtBP-E1A inh	Six1-Eya2 inh	D2 potentiator	D2 agonist	gsp antag
CCn1c(SCC(=O)O)nc2ccccc21	-12%[15.4 µM]	-4	17	-9	-0.9	·
COc1ccc(C(=O)NC(=S)NNC(=O)c2cccnc2)cc1	-6%[15.4 µM]	-14	-9	-11	-3.7	-23%
O=C1Nc2ccccc2C1=Nc1ccc(F)cc1	-47%[inhibitor]	4	10	-19	-9.6	11%
Oc1ccccc1Nc1nc(NCc2ccccc2)c2ccccc2n1	2%[15.4 µM]	0	-8	-11	0.4	?
COc1ccccc1/C=C/C(=O)OC(C)CN1CCOCC1 (centres undefined)	-11%	5	4	-24	-3.9	-5%

An excerpt from above, reduced to D2 agonist.
Molecule	D2 agonist
O=C1Nc2ccccc2C1=Nc1ccc(F)cc1	-9.6
Oc1ccccc1Nc1nc(NCc2ccccc2)c2ccccc2n1	0.4
COc1ccccc1/C=C/C(=O)OC(C)CN1CCOCC1 (centres undefined)	-3.9

Entries of single compounds from above. Values in the order: gsp ag | CtBP-E1A inh | Six1-Eya2 inh | D2 potentiator | D2 agonist | gsp antag
COc1ccccc1/C=C/C(=O)OC(C)CN1CCOCC1 (centres undefined) as listed: -11% | 5 | 4 | -24 | -3.9 | -5%
CCn1c(SCC(=O)O)nc2ccccc21 as listed: -12%[15.4 µM] | -4 | 17 | -9 | -0.9 | ·
